High-throughput results as filed in PubChem BioAssay.
VCAM-1 down: suppression of endothelial VCAM-1 upregulation – cell-based, plate reader, pooled HUVEC, TNFa stimulus (AID 454). HUVEC TNFa-induced VCAM-1 surface immunofluorescence, plate reader; numbers were filed only for top-ranked candidate wells. inhibition, % at 5 µM. 10,000 compounds, 0.2% hits;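 active = compound among top-ranked inhibitors of TNF-induced VCAM-1 adhesion protein staining, with the hit upheld by image or statistical review; inactive = the rest, including hits rejected on review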;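 also: 0% = TNFa with vehicle and 100% = cells without TNFa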
VCAM-1 up imaging: enhancers of VCAM-1 display on endothelial cells, imaging, high-content imaging, pooled HUVEC, TNFa stimulus (AID 457) | Pooled HUVEC, TNFa-induced VCAM-1 immunofluorescence imaging; hits of this screen are not shown here | calls only | 10,000 compounds, 0.2% hits;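 active = a top-ranked rise in VCAM-1 staining upheld on image or statistical review; inactive = the rest, including candidates rejected on review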;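 also: compounds tested at 5 µM in the well; cells exposed to compound for 24 hours before fixing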
FPRL1 ligand: binds the human formylpeptide receptor-like-1 FPRL1. FPRL1-expressing cells, fluorescent ligand binding inhibition, flow cytometry. inhibition, %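 (tested at 6.7 µM)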. 24,000 compounds, 0.3% hits. P25090;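 also: 0% = buffer alone and 100% = receptor blocker peptide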
Target sequence (P25090 whole entry, looked up): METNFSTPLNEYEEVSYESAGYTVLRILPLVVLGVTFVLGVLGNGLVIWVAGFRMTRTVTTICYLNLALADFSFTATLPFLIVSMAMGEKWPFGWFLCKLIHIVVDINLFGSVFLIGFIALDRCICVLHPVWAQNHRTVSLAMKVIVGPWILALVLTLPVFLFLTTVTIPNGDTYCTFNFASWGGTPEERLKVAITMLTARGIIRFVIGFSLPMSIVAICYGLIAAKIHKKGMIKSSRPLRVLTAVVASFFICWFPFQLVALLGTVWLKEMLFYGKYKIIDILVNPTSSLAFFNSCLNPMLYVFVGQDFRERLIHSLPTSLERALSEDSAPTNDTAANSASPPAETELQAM
VCAM-1 imaging: suppression of endothelial VCAM-1 upregulation – imaging, high-content imaging, pooled HUVEC, TNFa stimulus (AID 456). HUVEC TNFa-induced VCAM-1 surface expression, immunofluorescence imaging; numbers were filed only for top-ranked candidate wells. inhibition, % at 5 µM; hits with a dose series show IC50 in µM. 10,000 compounds, 0.2% hits;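 active = top tenth filtered wells with inhibition above zero that passed visual or statistical confirmation; inactive = the rest, including hits rejected on review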;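 also: 0% = stimulated vehicle wells and 100% = unstimulated cells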
FPR binder: ligands of human FPR, also counter-screen for FPRL1 ligands; inhibition, %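 (tested at 6.7 µM)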; P21462; FPR-expressing cells, fluorescent ligand binding, flow cytometry; 24,000 compounds, 0.74% hits;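 also: 0% = buffer wells and 100% = receptor blocker peptide wells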
Target sequence (P21462 whole entry, looked up): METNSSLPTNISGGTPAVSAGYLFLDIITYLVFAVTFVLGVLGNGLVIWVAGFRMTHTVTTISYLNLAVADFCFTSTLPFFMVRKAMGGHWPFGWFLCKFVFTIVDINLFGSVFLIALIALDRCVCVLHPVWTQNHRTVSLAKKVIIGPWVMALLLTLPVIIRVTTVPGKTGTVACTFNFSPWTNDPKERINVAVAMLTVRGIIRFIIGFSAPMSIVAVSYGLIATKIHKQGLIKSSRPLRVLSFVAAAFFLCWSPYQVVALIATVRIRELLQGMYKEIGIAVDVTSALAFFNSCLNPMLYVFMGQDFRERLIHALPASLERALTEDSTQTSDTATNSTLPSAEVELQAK
Active calls of the source: *; i = inactive; · = not tested or not shown.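 The calls were made as follows, unless noted: active = mean above 30%; inconclusive = self-fluorescent; inactive = the rest.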 Not all compounds are listed; count on the stated rates, not on these rows.

SMILES	VCAM-1 down	VCAM-1 up imaging	FPRL1 ligand	VCAM-1 imaging	FPR binder
Cn1c(Cn2c(=O)sc3ccccc32)nnc1SCC(=O)Nc1ccc(F)cc1	·	·	0.6	·	-2.0
Cc1ccc(-c2cn3nc(C)c(C)nc3n2)cc1	i	i	-2.6	i	-3.9
COc1cccc(C2CC(c3c(Cl)cccc3Cl)n3nc(N)nc3N2)c1 (stereo unspecified)	i	i	0.0	i	2.4
Cc1cccc(N2CCN(C(=O)c3ccc(NC(=O)C4CCCO4)cc3)CC2C)c1 (stereo unspecified)	·	·	1.2	·	3.2
CCC(=O)N(CCCN(C)C)c1nc(-c2cc(OC)ccc2OC)cs1	i	i	-4.5	i	-8.1
COc1cc(C(=O)Nc2nc(-c3cccs3)cs2)cc(OC)c1OC	i	i	4.6	i	-0.2
CC(C)c1cc(C(=O)NCc2cccnc2)no1	·	·	4.7	·	1.5
COCCNC(=O)Cn1c(=O)n(CCC(=O)NCCc2ccccc2)c(=O)c2ccccc21	·	·	16.1	·	1.8
CC1(O)CC(=O)N(c2ccccc2)O1 (stereo unspecified)	·	·	0.6	·	-4.0
Cn1c(=O)[nH]c(=O)c2c1nc(NCCCn1ccnc1)n2Cc1ccccc1	i	i	2.8	i	-5.8
COc1cccc(CN2CCN(CC(=O)Nc3ccccc3Cl)CC2)c1	·	·	2.0	·	0.8
CCN(CC)CCNC(=O)CS(=O)Cc1nc(-c2ccccc2Cl)oc1C (stereo unspecified)	·	·	4.8	·	15.5
CCOC(=O)COc1ccc(C2NC(C(=O)O)CS2)cc1 (stereo unspecified)	i	i	10.5	i	4.6
CCCSCCCNC(=O)c1cc2c(s1)CS(=O)(=O)C2	·	·	8.9	·	-2.6
Cc1cccn2c(=O)c3cc(C(=O)NCCCn4ccnc4)n(C)c3nc12	·	·	-9.7	·	2.6
C=CCOc1cccc(C2/C(=C(/O)c3ccccc3)C(=O)C(=O)N2CCCN2CCOCC2)c1 (stereo unspecified)	·	·	-2.6	·	-0.2
O=C(CSc1nnc(Cc2cc(=O)[nH]c(=O)[nH]2)n1-c1ccccc1)NCC1CCCO1 (stereo unspecified)	i	i	-0.8	i	1.2
COc1cc(C(=O)NCC(=O)OCC(=O)c2ccc[nH]2)cc(OC)c1OC	i	i	1.0	i	6.3
CC(=O)OCC(=O)[C@@]1(OC(C)=O)[C@@H](C)C[C@H]2[C@@H]3C[C@H](F)C4=CC(=O)C=C[C@]4(C)[C@@]3(F)[C@@H](O)C[C@@]21C	i	i	-5.0	i	0.3
O=C(CCCn1c(=O)[nH]c2ccsc2c1=O)N1CCN(Cc2ccc3c(c2)OCO3)CC1	·	·	6.4	·	1.9
Cc1ccc(NC(=O)C2CCCN2S(=O)(=O)c2cccc3cccnc23)cc1F (stereo unspecified)	i	i	-0.1	i	15.9
Cc1cc(NC(=O)NC(=O)c2cccc(OC(F)(F)C(F)F)c2)n[nH]1	i	i	-0.4	i	0.0
Cc1ccc(S(=O)(=O)N2CCN(C(=O)CN3CCN(C)CC3)C2)cc1	·	·	0.8	·	-0.4
Cc1nc2c(C(=O)N3CCN(c4ccccn4)CC3)cnn2c(C)c1Cc1cccc(Cl)c1	·	·	2.4	·	1.4
CCOC(=O)N1CCN(S(=O)(=O)c2ccc(C(=O)Nc3nc4ccccc4s3)cc2)CC1	·	·	-0.4	·	4.0
COc1ccc(C(F)(F)F)cc1NC(=O)c1nc2nc(C)cc(C(F)F)n2n1	i	i	0.6	i	-1.7
CCOC(=O)c1ccc(-c2n[nH]c(=O)c3ccccc23)cc1	·	·	9.9	·	8.8
COC(=O)CSc1ccc2nnc(-c3ccc(F)cc3)n2n1	·	·	-3.1	·	8.6
CCOC(=O)c1ccc(NC(=O)CSc2nnc(CNC(=O)c3c(F)cccc3Cl)o2)cc1	·	·	-13.8	·	-4.9
CCOCCCNC(=O)C1CCN(C(=O)N(C)C)CC1	·	·	-0.7	·	-2.1

A second format for three compounds above.
Fields – VCAM-1 down	VCAM-1 up imaging	FPRL1 ligand	VCAM-1 imaging	FPR binder
> Cc1nc2c(C(=O)N3CCN(c4ccccn4)CC3)cnn2c(C)c1Cc1cccc(Cl)c1
  ·	·	2.4	·	1.4
> CCOC(=O)N1CCN(S(=O)(=O)c2ccc(C(=O)Nc3nc4ccccc4s3)cc2)CC1
  ·	·	-0.4	·	4.0
> COc1ccc(C(F)(F)F)cc1NC(=O)c1nc2nc(C)cc(C(F)F)n2n1
  i	i	0.6	i	-1.7

(cont.)
SMILES	VCAM-1 down	VCAM-1 up imaging	FPRL1 ligand	VCAM-1 imaging	FPR binder
N#CCSc1nc(N)c(C#N)c(C2CCCCC2)c1C#N	·	·	-5.6	·	-15.0
O=C(NCc1ccco1)c1cc(-c2cccnc2)nc2ccccc12	·	·	-1.1	·	-1.3
CCCCOC(=O)Nc1nc2ccc(OC)cc2s1	i	i	2.4	i	1.5
CCOc1ccccc1NC(=O)CN(c1ccc(C)cc1)S(=O)(=O)c1c(C)n[nH]c1C	·	·	-0.1	·	-3.3
Cc1cc(Nc2ccc3c(c2)OCCO3)n2nc(C)nc2n1	·	·	4.2	·	5.3
CCc1nnc(NC(=O)CSc2nnc(-c3c[nH]c4ccccc34)n2CCOC)s1	·	·	-13.8	·	-2.4
COc1ccc2c(CC(=O)Nc3ccc(OC)c(NS(=O)(=O)c4ccc(F)cc4)c3)coc2c1	i	i	-3.4	i	5.5
CCOC(=O)C1CCN(C(=O)CCc2nc3ccccc3[nH]2)CC1	·	·	-3.7	·	0.6
CC(=O)N1CCc2cc(Br)cc(S(=O)(=O)NCc3ccccn3)c21	·	·	3.2	·	2.6
Cn1c(SCC(=O)N2CCOCC2)nnc1-c1cnccn1	i	i	3.7	i	2.0
O=C(CN1CCOc2ccccc21)NC1CCCCCCC1	·	·	0.8	·	-7.2
COC(=O)Nc1ccc(C)cc1NC(=O)OC	i	i	12.1	i	-3.4
Cc1ccc(C)c(NC(=O)Cn2nnc(C(=O)Nc3c(C)cccc3C)c2N)c1	·	·	0.2	·	-1.4
c1ccc(N(c2ccccc2)c2nc(-n3ccnc3)nc(-n3ccnc3)n2)cc1	·	·	-9.3	·	-1.4
Cc1nc2ccccn2c1/C(O)=C1\C(=O)C(=O)N(CCCN(C)C)C1c1ccc(F)cc1 (stereo unspecified)	i	i	14.3	i	9.8

Shown with two lines to a compound: 2 of the compounds above.
Values run as follows: VCAM-1 down, VCAM-1 up imaging, FPRL1 ligand, VCAM-1 imaging, FPR binder
- c1ccc(N(c2ccccc2)c2nc(-n3ccnc3)nc(-n3ccnc3)n2)cc1
 : ·, ·, -9.3, ·, -1.4
- Cc1nc2ccccn2c1/C(O)=C1\C(=O)C(=O)N(CCCN(C)C)C1c1ccc(F)cc1 (stereo unspecified)
 : i, i, 14.3, i, 9.8

Continued.
SMILES	VCAM-1 down	VCAM-1 up imaging	FPRL1 ligand	VCAM-1 imaging	FPR binder
Cn1cnc2c(N3CCCCC3)nccc21	i	i	-0.1	i	3.3
CCC(=O)Oc1ccc(/C(CC)=C(\CC)c2ccc(OC(=O)CC)cc2)cc1	i	i	-5.3	i	-1.6
COc1ccc(S(=O)(=O)N2Cc3ccccc3CC2C(=O)O)cc1OC (stereo unspecified)	·	·	-7.6	·	-4.0
Cc1cccc(-c2nc(CS(=O)CC(=O)N3CCc4ccccc4C3)c(C)o2)c1 (stereo unspecified)	·	·	4.9	·	7.5
COc1ccc(C2=NOC(C(=O)N3CCOCC3)C2)cc1OC (stereo unspecified)	·	·	2.2	·	-2.8
O=C(NCc1ccccc1Cl)C1CCN(S(=O)(=O)N2CCC3(CC2)OCCO3)CC1	·	·	0.6	·	1.6
CC(=O)N(c1c(C)n(C)n(-c2ccccc2)c1=O)C1(C(=O)NC2CCCC2)CCCCC1	·	·	10.4	·	0.0
Cc1ccccc1S(=O)(=O)Cc1ccc(C(=O)NCCN2CCCCC2C)o1 (stereo unspecified)	·	·	-3.3	·	2.5
CCN1CCCC1CNC(=O)c1csc2c1CCCC2 (stereo unspecified)	·	·	8.3	·	-3.1
CC(=O)N(CCc1ccccc1C)Cc1cc2cc3c(cc2[nH]c1=O)OCO3	i	i	4.7	i	3.5
O=c1c2c(nc3c(-c4ccc(Cl)cc4)c[nH]n13)CCCC2	·	·	1.0	·	70.6*
O=C(COc1ccc(Cl)cc1Cl)Nc1ccc2nc3n(c(=O)c2c1)CCCC3	·	·	7.7	·	2.2
COc1ccc(CN2CC(C(=O)NCCN3CCN(c4ccccc4F)CC3)CC2=O)cc1 (stereo unspecified)	·	·	6.5	·	-5.3
CCOc1cc2c(cc1OCC)C(C(=O)O)C(c1cc(Br)c(O)c(OC)c1)N(C)C2=O (stereo unspecified)	·	·	-1.4	·	1.3
CCOC(=O)C1=C(CN2CCOCC2)NC(=O)NC1c1cc(C)ccc1C (stereo unspecified)	i	i	-3.1	i	3.4
COc1ccccc1-c1cc(C(=O)NCc2ccc(Cl)cc2)no1	·	·	0.9	·	2.0
CN(CC(=O)N1CCc2ccccc2C1)S(=O)(=O)c1ccc2c(c1)c(=O)n(C)c(=O)n2C	·	·	-1.5	·	1.7
CCN(CC)C(=O)c1ccc2c(c1)N(Cc1ccccc1)C(=O)CS2=O (stereo unspecified)	·	·	-0.5	·	-3.8
O=C(Nc1cccc(F)c1)C1CCCN1S(=O)(=O)c1cccc2cccnc12 (stereo unspecified)	·	·	-0.6	·	2.4
CC(=O)c1ccc(OC(=O)c2cccs2)cc1	i	i	-1.7	i	-0.6
c1ccc(-c2nc(Sc3ncnc4c3cnn4-c3ccccc3)n[nH]2)cc1	·	·	-1.4	·	-2.2
COC(=O)[C@H](C)NC(=O)Nc1cc(OC)ccc1OC	i	i	5.4	i	-6.0
COc1ccc(N2CCN(C(=O)CSc3ncnc4c3cnn4-c3ccccc3C)CC2)cc1	i	i	1.5	i	14.4
Cc1nn(-c2ccc(F)cc2)c2sc(C(=O)O)cc12	i	i	-3.1	i	-0.2
C=C(CC)C(=O)c1ccc(OCC(=O)O)c(Cl)c1Cl	i	i	3.2	i	-0.3
CN(C)CC(O)COc1ccc(-c2ccc(C#N)cc2)cc1 (stereo unspecified)	i	i	12.9	i	-3.5
O=C(Nc1ccc(NC(=O)c2ccco2)nc1)c1cccnc1	i	i	-3.2	i	-3.3
CCOc1ccc(C(CC(=O)O)NC(=O)c2ccco2)cc1OC (stereo unspecified)	i	i	7.1	i	-2.0
CCOC(=O)c1cc2c(=O)n3ccccc3nc2n(CC(C)C)c1=NC(=O)c1ccco1	i	i	3.1	i	-1.5
CCN1CCN(C(=O)c2oc(=O)c3ccccc3c2-c2ccc(C)cc2)CC1	i	i	-3.5	i	-1.1
CCN(CC)c1ccc(-c2c(C#N)c(N)nc(OC)c2C#N)cc1	i	i	-2.3	i	-6.0
COc1ccccc1NC(=O)N(Cc1ccco1)Cc1cc2cccc(C)c2[nH]c1=O	i	i	-8.9	i	-9.3
Cc1ccc(NC(=O)C2C(=O)N(CCO)C3(C)CC2c2ccccc2O3)cc1 (stereo unspecified)	·	·	40.2*	·	30.9*
CN(C)c1ccc(NC(=O)c2ccncc2)c2ccccc12	i	i	-1.7	i	4.2
COc1ccc(N2C(=O)C3CCCN3C2c2ccccc2F)cc1 (stereo unspecified)	·	·	-3.4	·	7.1
O=C(c1cccnc1NCc1ccccc1)N1CCOCC1	i	i	-1.9	i	-10.6
Cc1nc(N2CCCCC2)c2sc(=S)n(C)c2n1	·	·	-4.0	·	5.2
O=C(C1CCCN(S(=O)(=O)c2cnc[nH]2)C1)N1CCN(c2ccc(Cl)cc2)CC1 (stereo unspecified)	i	i	-1.8	i	-6.5
COc1cccc(N2CCN(C(=O)C3C4C=CC5(CN(Cc6ccccc6Cl)C(=O)C35)O4)CC2)c1 (stereo unspecified)	i	i	1.5	i	1.0
CCOc1ccc(N(CC(=O)N2CCCC2)S(=O)(=O)c2c(C)noc2C)cc1	·	·	5.7	·	4.5
COc1cccc(/C(O)=C2/C(=O)C(=O)N(CCCN3CCOCC3)C2c2ccncc2)c1 (stereo unspecified)	·	·	-4.8	·	-6.4
CCOC(=O)N1CCN(C(=O)c2ccc(CS(=O)(=O)c3ccc(OC)cc3)o2)CC1	i	i	-1.5	i	4.3
N#CC1=C(SCc2ccccc2)NC(=O)C(C#N)C12CCCC2 (stereo unspecified)	i	i	-4.3	i	11.4

Quoted from the listing:
`Cc1nc(N2CCCCC2)c2sc(=S)n(C)c2n1` in FPR binder: 5.2
`COc1ccccc1NC(=O)N(Cc1ccco1)Cc1cc2cccc(C)c2[nH]c1=O` in FPR binder: -9.3
`CCOC(=O)N1CCN(C(=O)c2ccc(CS(=O)(=O)c3ccc(OC)cc3)o2)CC1` in FPR binder: 4.3
